FGF22 binding: binders of recombinant human FGF22 by thermal shift; SYPRO orange fluorescence; percent of sucrose octasulfate shift, DMSO zero; 340,000 tested, 1.5% active; Q9HCT0; calls only at 9.99 µM;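 active = melting point raised past a set limit in the mean and every replicate; three in four hits are not shown here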
Target sequence (Q9HCT0 whole entry, looked up): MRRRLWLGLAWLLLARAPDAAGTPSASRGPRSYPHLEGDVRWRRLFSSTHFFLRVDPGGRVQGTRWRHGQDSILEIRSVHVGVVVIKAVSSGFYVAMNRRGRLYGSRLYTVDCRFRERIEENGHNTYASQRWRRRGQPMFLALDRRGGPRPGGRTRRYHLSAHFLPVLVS
Calls only; i = inactive; + = active, no number.

FGF22 binding | molecule
i | CC(C)NC(=O)N[C@@H]1C=C[C@H](CC(=O)NCc2ccc(Oc3ccccc3)cc2)O[C@H]1CO
i | CCNC(=O)C[C@@H]1CC[C@@H](NC(=O)C2CCC2)[C@H](CO)O1
i | COCCNC(=O)C[C@H]1CC[C@@H]2[C@H](COc3ccc(NC(=O)Cc4ccccc4)cc3C(=O)N2C)O1
i | C[C@@H]1CN([C@@H](C)CO)C(=O)c2cccc(NC(=O)CCCCCC(=O)Nc3ccccc3N)c2O[C@H]1CN(C)S(C)(=O)=O
i | O=C1CN(S(=O)(=O)c2ccccc2)C[C@@H]2[C@H](c3ccc(Br)cc3)[C@H](CO)N12
i | C[C@@H]1CN([C@@H](C)CO)C(=O)c2cc(/C=C/c3ccccc3)cnc2O[C@H]1CN(C)S(C)(=O)=O
i | O=C(NC1CCC1)[C@H]1[C@H](CO)[C@H]2Cn3c(ccc(-c4ccccc4)c3=O)[C@H]2N1Cc1ccccn1
i | C[C@@H]1CN([C@@H](C)CO)C(=O)Cc2cc(NC(=O)CCC(F)(F)F)ccc2O[C@H]1CN(C)Cc1ccc2c(c1)OCO2
i | COCC(=O)Nc1ccc2c(c1)C(=O)N(C)C[C@@H](OC)[C@@H](C)CN(C(=O)c1ccccc1)[C@@H](C)CO2
i | CCC(=O)N[C@@H]1CC[C@@H](CC(=O)NCc2ccc(OC)cc2)O[C@@H]1CO
i | C[C@H]1CN([C@@H](C)CO)C(=O)c2cccc(NC(=O)c3ccncc3)c2O[C@H]1CN(C)S(=O)(=O)c1cccs1
i | C[C@H](CO)N1C[C@H](C)[C@@H](CN(C)C(=O)Nc2cccc3ccccc23)OCCCC[C@H](C)Oc2ccc(NS(C)(=O)=O)cc2C1=O
i | COc1ccc2c(c1)[C@@H](NC(=O)c1ccncc1)[C@@H]1Cc3ccccc3[C@H]21
i | C[C@H](CO)N1C[C@H](C)[C@@H](CN(C)S(C)(=O)=O)Oc2ncc(C#CC3(O)CCCC3)cc2C1=O
i | C[C@H](CO)N1C[C@H](C)[C@H](CN(C)Cc2ccc(C(F)(F)F)cc2)Oc2ccc(NC(=O)Cc3ccccc3)cc2CC1=O
i | Cc1cc(C(=O)Nc2cccc3c2O[C@H](CN(C)C(=O)Nc2c(C)noc2C)[C@H](C)CN([C@H](C)CO)C3=O)n(C)n1
i | CCCNC(=O)N[C@H]1C=C[C@@H](CC(=O)NC2CCC2)O[C@@H]1CO
i | C[C@H](CO)N1C[C@H](C)[C@@H](CN(C)Cc2ccncc2)OCCCC[C@H](C)Oc2ccc(N(C)C)cc2C1=O
i | O=C(c1ccncc1)N1C[C@@H]2[C@H](c3ccccc31)[C@@H](CO)N2C(=O)c1ccccn1
i | C[C@H](CO)N1C[C@H](C)[C@@H](CN(C)C(=O)CN(C)C)Oc2cc(-c3ccccc3)ccc2S1(=O)=O
i | C[C@H](CO)N1C[C@H](C)[C@@H](CN(C)Cc2ccncc2)Oc2cc(-c3ccccc3)ccc2S1(=O)=O
i | C[C@H](CO)N1C[C@H](C)[C@@H](CN(C)Cc2ccc3c(c2)OCO3)Oc2c(NS(=O)(=O)c3ccc(Cl)cc3)cccc2C1=O
i | O=C(C[C@H]1C[C@H]2c3cc(NS(=O)(=O)c4ccccc4)ccc3O[C@H]2[C@H](CO)O1)NCC1CC1
i | COc1ccccc1CN1[C@H](CO)[C@@H](c2ccccc2)C12CN(C(=O)c1cnccn1)C2
i | CN1CCN(C(=O)C[C@H]2C=C[C@H](NC(=O)Cc3ccccn3)[C@@H](CO)O2)CC1

The list goes on.
FGF22 binding | molecule
i | CO[C@@H]1CN(C)C(=O)c2ccc(NC(C)=O)cc2OC[C@H](C)N(C(=O)c2ccc(F)cc2)C[C@@H]1C
i | CC(C)CC#Cc1ccc2c(c1)O[C@H](CN(C)C(=O)C1CCC1)[C@@H](C)CN([C@H](C)CO)S2(=O)=O
i | CC(=O)N(C)C[C@H]1Oc2cc(C3=CCCC3)ccc2S(=O)(=O)N([C@@H](C)CO)C[C@@H]1C
i | C[C@H](CO)N1C[C@H](C)[C@H](CN(C)S(=O)(=O)c2ccc(F)cc2)OCCCC[C@H](C)Oc2ccc(NC(=O)Cc3ccccc3)cc2C1=O
i | C[C@H](CO)N1C[C@H](C)[C@H](CN(C)Cc2ccc(C(=O)O)cc2)OCCCC[C@H](C)Oc2ccc(NC(=O)Nc3ccc(C(F)(F)F)cc3)cc2C1=O
i | Cc1cccc(S(=O)(=O)N2C[C@@H](O)COC[C@H]3O[C@H](CC(=O)NCCCN4CCOCC4)CC[C@@H]32)c1
i | CO[C@H](CN(C)S(=O)(=O)c1ccc(F)cc1)[C@H](C)CN([C@@H](C)CO)S(=O)(=O)c1cccc(Cl)c1
i | COCC(=O)N(C)C[C@H]1Oc2cc(C#CC(C)(C)O)ccc2S(=O)(=O)N([C@H](C)CO)C[C@H]1C
i | COc1ccc(CNC(=O)C[C@H]2C[C@@H]3c4cc(NC(=O)NC5CCCC5)ccc4O[C@@H]3[C@H](CO)O2)cc1
i | COc1ccc(S(=O)(=O)Nc2ccc3c(c2)C(=O)N([C@@H](C)CO)C[C@H](C)[C@H](CN(C)C(=O)Nc2ccccc2)OCCCC[C@H](C)O3)cc1
i | COc1ccccc1-c1ccc2c(c1)O[C@H](CN(C)C(=O)Nc1cccc(F)c1)[C@@H](C)CN([C@H](C)CO)S2(=O)=O
i | COc1ccc(CN(C)C[C@@H]2Oc3ccc(NS(=O)(=O)c4cn(C)cn4)cc3CC(=O)N([C@@H](C)CO)C[C@H]2C)cc1
i | O=C(N[C@@H]1CC[C@@H](CCn2cc(Cc3ccccc3)nn2)O[C@@H]1CO)c1cnccn1
i | C[C@H](CO)N1C[C@H](C)[C@@H](CN(C)C(=O)C2CC2)Oc2cc(-c3cccc(F)c3)ccc2S1(=O)=O
i | Cc1noc(C)c1S(=O)(=O)Nc1ccc2c(c1)CC(=O)N([C@H](C)CO)C[C@@H](C)[C@@H](CN(C)C)O2
i | CCC(=O)N1CC2(C1)[C@H](c1ccc(-c3ccccc3OC)cc1)[C@H](CO)N2C(C)=O
i | O=C(N[C@H]1CC[C@H](CC(=O)N2CCc3ccccc3C2)O[C@@H]1CO)C1CCC1
i | CO[C@H]1CN(C)C(=O)c2ccc(NC(=O)CC(F)(F)F)cc2OC[C@@H](C)N(C(C)=O)C[C@@H]1C
i | C[C@H]1CN([C@@H](C)CO)C(=O)c2cccc(NC(=O)Nc3ccc(F)cc3)c2O[C@H]1CN(C)Cc1ccc2c(c1)OCO2
i | CNC[C@H]1Oc2c(NC(=O)NC3CCCCC3)cccc2C(=O)N([C@@H](C)CO)C[C@H]1C
i | C[C@@H]1CN([C@@H](C)CO)C(=O)c2cc(NS(=O)(=O)c3ccccc3)ccc2O[C@@H](C)CCCCO[C@@H]1CN(C)C(=O)Nc1ccc(F)cc1
i | CCN(C[C@H]1[C@H](c2ccccc2)[C@H](CO)N1C(C)=O)C(=O)NC1CCCC1
i | C[C@H](CO)N1C[C@H](C)[C@@H](CN(C)C(=O)CN(C)C)Oc2cc(C#Cc3cccnc3)ccc2S1(=O)=O
i | CNC[C@@H]1OCCCC[C@H](C)Oc2ccc(NC(=O)NC(C)C)cc2C(=O)N([C@H](C)CO)C[C@H]1C
i | O=C(/C=C(\Nc1cc(Cl)c(F)c(Cl)c1)c1ccccc1)c1ccccc1

Continued:
FGF22 binding | molecule
i | O=C(C[C@@H]1C[C@H]2c3cc(NC(=O)c4ccc5c(c4)OCO5)ccc3O[C@H]2[C@@H](CO)O1)NCC1CC1
i | C[C@H](CO)N1C[C@H](C)[C@@H](CN(C)Cc2ccc(C(=O)O)cc2)Oc2ccc(NC(=O)CCC(F)(F)F)cc2C1=O
i | COCC(=O)N1C[C@H](C)[C@H](OC)CN(C)C(=O)c2ccc(NC(=O)c3cc(C)on3)cc2OC[C@@H]1C
i | COCC(=O)N1CC[C@H]2[C@@H]1c1cc(-c3ccccc3)ccc1N(C)[C@H]2CO
i | O=C(C1CC1)N1C[C@@H]2[C@H](c3ccccc31)[C@H](CO)N2C(=O)c1ccccn1
i | O=C(Nc1ccccc1)N1CCCCN2[C@H](C1)[C@@H](c1ccc(C#CC3CC3)cc1)[C@@H]2CO
i | COc1ccc(NC(=O)Nc2ccc3c(c2)C(=O)N([C@H](C)CO)C[C@@H](C)[C@@H](CN(C)Cc2ccc(C(=O)O)cc2)OCCCC[C@@H](C)O3)cc1
i | CO[C@H]1CN(C)C(=O)c2ccc(NC(C)=O)cc2OC[C@@H](C)N(C(=O)C2CC2)C[C@H]1C
i | COc1cccc(CNC(=O)C[C@@H]2CC[C@H]3[C@@H](COc4ccc(NC(C)=O)cc4C(=O)N3C)O2)c1
i | O=C(Nc1cc(F)ccc1F)N1C[C@@H]2[C@H](c3ccccc31)[C@H](CO)N2Cc1ccncc1
i | COc1ccc(NC(=O)Nc2ccc3c(c2)CC(=O)N([C@H](C)CO)C[C@@H](C)[C@@H](CN(C)S(=O)(=O)c2ccc(OC)cc2)O3)cc1
+ | C[C@H]1CCCCO[C@@H](CN(C)C(=O)C2CCCCC2)[C@@H](C)CN([C@@H](C)CO)C(=O)c2cc(NC(=O)Cc3ccccc3)ccc2O1
i | O=C(C[C@@H]1C=C[C@H](NC(=O)Nc2cc(F)ccc2F)[C@@H](CO)O1)NCCCN1CCOCC1
i | O=C(N[C@H]1CC[C@H](CCNC(=O)C2CCCC2)O[C@H]1CO)c1ccccn1
i | C[C@H]1CCCCO[C@@H](CN(C)Cc2ccc(C(F)(F)F)cc2)[C@@H](C)CN([C@@H](C)CO)C(=O)c2cc(NC(=O)Cc3ccccc3)ccc2O1
i | COc1ccc2c3c([nH]c2c1)[C@@H](CO)N(Cc1ccccc1F)CC31CCN(CC2CC2)CC1
i | O=C(N[C@H]1CC[C@H](CCNS(=O)(=O)c2ccc(F)cc2)O[C@H]1CO)C1CCC1
i | O=C(Nc1ccccc1F)N[C@H]1CC[C@H](CCNC(=O)C2CCCCC2)O[C@H]1CO
i | C[C@@H]1CN([C@@H](C)CO)S(=O)(=O)c2ccc(C#CCN(C)C)cc2O[C@@H]1CN(C)Cc1ccncc1
i | CO[C@@H]1CN(C)C(=O)c2ccc(NC(=O)C3CC3)cc2OC[C@@H](C)N(Cc2nccs2)C[C@@H]1C
i | CCCN(C)C[C@H]1Oc2cc(C#Cc3ccccc3)ccc2S(=O)(=O)N([C@@H](C)CO)C[C@H]1C
i | CC=Cc1ccc2n(c1=O)C[C@@H]1[C@@H](CO)[C@H](C(=O)N3CCN(C)CC3)N(Cc3ccccc3OC)[C@H]21 (mixture of isomers)
i | C[C@H]1CN([C@@H](C)CO)S(=O)(=O)c2ccc(-c3cccnc3)cc2O[C@H]1CN(C)C(=O)C1CCCCC1
i | COCC(=O)N1CC2(CN(C(=O)CN3CCOCC3)C2)c2c([nH]c3cc(OC)ccc23)[C@H]1CO
i | C[C@H]1CN([C@@H](C)CO)C(=O)c2cc(C#CCN(C)C)cnc2O[C@H]1CN(C)Cc1ccccc1

Structural class, the entries above containing an NH in an aromatic ring (2)
FGF22 binding | molecule
i | COc1ccc2c3c([nH]c2c1)[C@@H](CO)N(Cc1ccccc1F)CC31CCN(CC2CC2)CC1
i | COCC(=O)N1CC2(CN(C(=O)CN3CCOCC3)C2)c2c([nH]c3cc(OC)ccc23)[C@H]1CO

New compounds follow:
FGF22 binding | molecule
i | CO[C@@H]1CN(C)C(=O)c2cc(NS(=O)(=O)CC(F)(F)F)ccc2OC[C@@H](C)N(Cc2ccccn2)C[C@H]1C
i | C[C@@H]1CN([C@H](C)CO)C(=O)c2cc(C3=CCCC3)cnc2O[C@@H]1CN(C)Cc1ccc(F)cc1
i | O=C(C[C@@H]1CC[C@@H]2[C@H](COC[C@@H](O)CN2Cc2cc(F)ccc2F)O1)NCc1ccc(Oc2ccccc2)cc1
i | C[C@@H]1CN([C@@H](C)CO)C(=O)c2cc(C#CC3(O)CCCC3)cnc2O[C@H]1CN(C)S(C)(=O)=O
i | CCC(=O)N1C[C@@H](C)[C@H](OC)CN(C)C(=O)c2cc(NC(=O)Nc3cccc(F)c3)ccc2OC[C@H]1C
i | COc1ccc(NC(=O)N(C)C[C@@H]2Oc3ncc(-c4cccc(F)c4)cc3C(=O)N([C@H](C)CO)C[C@@H]2C)cc1
i | CCC(=O)Nc1ccc2c(c1)OC[C@@H](C)N(C(=O)c1ccncc1)C[C@H](C)[C@H](OC)CN(C)C2=O
i | C[C@@H]1CN([C@H](C)CO)C(=O)c2c(c3ccccc3n2C)-c2ccccc2CO[C@H]1CN(C)Cc1ccc(F)cc1
i | O=C(N[C@@H]1CC[C@@H](CCNS(=O)(=O)Cc2ccccc2)O[C@H]1CO)c1ccc2c(c1)OCO2
i | CC(C)NC(=O)Nc1ccc2c(c1)CC(=O)N([C@H](C)CO)C[C@@H](C)[C@H](CN(C)C(=O)Nc1ccc3c(c1)OCO3)O2

Structures listed above that bear a hit mark in FGF22 binding.
FGF22 binding | molecule
+ | C[C@H]1CCCCO[C@@H](CN(C)C(=O)C2CCCCC2)[C@@H](C)CN([C@@H](C)CO)C(=O)c2cc(NC(=O)Cc3ccccc3)ccc2O1

Some of these compounds in order of formula weight, lowest first.
FGF22 binding | molecule
i | C[C@@H]1CN([C@H](C)CO)C(=O)c2cc(C3=CCCC3)cnc2O[C@@H]1CN(C)Cc1ccc(F)cc1
i | O=C(N[C@@H]1CC[C@@H](CCNS(=O)(=O)Cc2ccccc2)O[C@H]1CO)c1ccc2c(c1)OCO2
i | C[C@@H]1CN([C@@H](C)CO)C(=O)c2cc(C#CC3(O)CCCC3)cnc2O[C@H]1CN(C)S(C)(=O)=O
i | CCC(=O)N1C[C@@H](C)[C@H](OC)CN(C)C(=O)c2cc(NC(=O)Nc3cccc(F)c3)ccc2OC[C@H]1C
i | CO[C@@H]1CN(C)C(=O)c2cc(NS(=O)(=O)CC(F)(F)F)ccc2OC[C@@H](C)N(Cc2ccccn2)C[C@H]1C
i | CC(C)NC(=O)Nc1ccc2c(c1)CC(=O)N([C@H](C)CO)C[C@@H](C)[C@H](CN(C)C(=O)Nc1ccc3c(c1)OCO3)O2

High-throughput results deposited in PubChem BioAssay by Broad Institute.

This is a subset. The share of hits here may be higher or lower than overall.
